Source: PubChem
Autofluor counter: counter-screen for toxin protease inhibitors: compound fluorescence; compound autofluorescence counterscreen, microsphere flow cytometry; hits give high values; fluorescence intensity (test concentration not listed); 360,000 tested, 3.1% active; AID 624483;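 active means at least 3 SD above the mean of all compounds, about 16000 in these data; inconclusive means too few beads counted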;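 further: 100 nL of 1 mM stock went into each well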
PrP 5UTR inh: inhibition of PrP 5' UTR reporter expression | AID 488862 | inhibition, % (no concentration beside the values) | 340,000 tested, 0.35% active | cell-based PrP 5' UTR mRNA reporter, plate reader;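 active means every replicate at 50% or more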;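 further: 0 = median of the neutral control wells; tested in H4 reporter cells; numbers are from one replicate; inactives centre near -14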
RN4220 kill: kills Staphylococcus aureus RN4220 | AID 1259311 | S. aureus RN4220 growth, OD600, 16 h | inhibition, % (concentration not given with the values) | 330,000 tested, 0.33% active;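 active means z-score of -3 or lower and OD600 up to 0.18 on both plates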;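 further: plate controls were untreated cells for no effect and reference antibiotic for full effect; stock transfer was 100 nL into about 80 µL; one replicate is shown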
Mtb hypoxia rep: Mtb hypoxia fluorescent reporter inhibition | M. tuberculosis hypoxia-regulated fluorescent reporter, fluorescence | fluorescence inhibition, % (no concentration beside the values) | 300,000 tested, 0.1% active;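 active means 35 to 45% if threefold the growth effect, above 45% if 1.5-fold the growth effect; inactive means the rest, general growth blockers included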;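 further: wells of about 50 µL received 100 nL stock; 0% = vehicle wells and 100% = reference inhibitor wells; whole bacteria with a GFP reporter of the hypoxia response; strong numbers were not always called active; many hits fall short of the cut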
BJeLR lethal: BJeLR cell viability loss; BJeLR (HRASV12) viability, CellTiter-Glo ATP luminescence, 48 h; reference of the scale not given here; inhibition, % (test concentration not listed); 300,000 tested, 0.17% active;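 active means replicate mean above 50%; inconclusive means above 50% but judged a plate artefact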;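 further: 50 nL library stock added to about 25 µL; numbers are from one replicate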
ugtP null kill: kills S. aureus RN4220 lacking UgtP. growth inhibition, % (no concentration beside the values). S. aureus RN4220 ugtP deletion, OD600 growth, 16 h; some inactives read as strong as hits. AID 1259309. 330,000 tested, 0.54% active;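 active means z-score under -3 and OD600 up to 0.15 on both plates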;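 further: plate controls were untreated wells for no effect and antibiotic for full effect; wells of about 80 µL received 100 nL stock; the first replicate is given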
Mtb hypoxia rep growth: also measured in Mtb hypoxia rep; calls as there; growth inhibition, %; measured here: M. tuberculosis growth (absorbance);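 0% = vehicle and 100% = reference antibiotic; read after six days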
Starred values were filed as active, the others as inactive; ? = inconclusive; . = not tested or not shown.

mol | Autofluor counter | PrP 5UTR inh | RN4220 kill | Mtb hypoxia rep | Mtb hypoxia rep growth | BJeLR lethal | ugtP null kill
Cc1ncc(CCl)c2c1OC(C)(C)OC2 | 2791 | -25.1 | 0.9 | . | . | -21.8 | 11.6
CC1(C)Cc2c(sc(N=CN3CCCCCC3)c2C#N)C(C)(C)N1 | . | . | 4.8 | 3.0 | 8.7 | . | -3.5
Cc1cccc(CS(=O)(=O)c2ncc(Cl)c(C(=O)NCc3ccc4c(c3)OCO4)n2)c1 | 5028 | -7.1 | 24.4 | -1.7 | 2.0 | 11.5 | 21.2
CCCCCN(C(=O)CCC(=O)OCc1cccc(C(F)(F)F)c1)c1c(N)n(CCCC)c(=O)[nH]c1=O | 4602 | -10.5 | 12.8 | -0.6 | 2.0 | -5.9 | 20.9
COc1ccccc1-n1cnnc1SCC(=O)Nc1cc(C(C)(C)C)nn1-c1ccccc1 | 3336 | -51.4 | -0.9 | -8.1 | -0.4 | -7.5 | -0.5
C=C(C)CSCc1nc2ccccc2[nH]1 | 3917 | -8.6 | 2.4 | . | . | 1.8 | 2.6
O=C(Nc1nccs1)c1cccc(NC(=O)c2ccco2)c1 | 2763 | -14.3 | -4.1 | 15.9 | 7.1 | -0.9 | -9.5
CSCCC(NC(=O)c1cc(S(=O)(=O)N2CCOCC2)ccc1F)c1nc2ccccc2[nH]1 (stereo not given) | 4053 | -19.8 | 1.8 | 3.8 | -1.3 | . | 1.9
CCSc1nnc(NC(=O)CSc2nnc(-c3c[nH]c4ccccc34)n2C)s1 | 4394 | -10.6 | 13.6 | 5.5 | 15.5 | -7.4 | 2.1
O=C(CN1C(=O)NC2(CCCCC2)C1=O)Nc1ccc(Cl)c(S(=O)(=O)N2CCOCC2)c1 | 6226 | 14.5 | 1.3 | 5.9 | -4.6 | . | -1.9
C/C(=N\OCc1ccccc1)c1c(O)cc(C(C)C)n(-c2ccccc2)c1=O | 2705 | -12.1 | . | . | . | -14.0 | .
COCCNC(=S)NN=C1CCCCC1 | 4635 | 3.2 | 2.3 | 2.9 | -9.6 | 7.4 | 3.2
CN1CCN(C(=O)COc2ccc(C(C)(C)C)cc2Br)CC1 | 3169 | -2.1 | 1.9 | . | . | -2.7 | -4.6
Cc1cc(C(=O)NNC(=O)c2cccc(C(F)(F)F)c2)no1 | 3812 | -7.3 | -1.1 | -4.8 | 3.5 | -0.2 | -3.2
Cc1c2c(nc3nnnn13)CCCC2 | 4393 | -6.0 | 6.6 | 12.5 | 3.7 | 3.7 | 13.7
O=C1Nc2ccc(S(=O)(=O)N3CCCC3)c3cccc1c23 | 10088 | -17.0 | 6.5 | 3.8 | 0.8 | 4.3 | -0.5
Cc1occc1-c1nnc(SCC(=O)NC2CC2)n1C(C)C | 4194 | -5.0 | 3.6 | 6.5 | -1.9 | 5.0 | 12.2
Cc1cccc(C(=O)Nc2ccc3c(c2)C(=O)N(CC(C)C)C3=O)c1 | 5484 | -42.5 | -0.8 | 5.3 | 3.7 | 4.9 | -11.5
O=C(NC(NCc1cccnc1)C(Cl)(Cl)Cl)c1cccc2ccccc12 (stereo not given) | 2331 | -17.6 | 11.4 | 4.4 | -0.3 | 13.2 | 6.8
Cc1nc2ccccc2n1CCC(=O)Nc1cccc(F)c1 | 4262 | -10.8 | 12.7 | . | . | 1.0 | -14.5
CCOC(=O)Cc1nnc(NC(=O)COc2ccc(OC)cc2)s1 | 15375 | 7.3 | 3.7 | 0.9 | 1.4 | 2.1 | 6.9
O=C(CSc1nncs1)Nc1ccc(S(=O)(=O)N2CCCC2)cc1 | 4017 | -21.3 | -4.2 | 10.0 | 5.2 | 3.6 | 6.3
COc1cc(C2NC(=O)NC(C)=C2C(=O)OCC2CCCCC2)ccc1O (stereo not given) | 3984 | -26.1 | 4.5 | 8.7 | -5.5 | -7.0 | -4.0
O=C(CSc1nnc(-c2ccco2)n1Cc1ccco1)Nc1ccccc1 | 4305 | -9.8 | 7.0 | -1.4 | 5.7 | -11.6 | -1.9
O=C(CC1S/C(=N/N=Cc2ccco2)NC1=O)Nc1ccccc1 (stereo not given) | . | . | 7.0 | 6.2 | -1.7 | . | 1.6
CCOc1ccc(S(=O)(=O)Nc2cccc(C)c2)c2cccnc12 | 3303 | -10.1 | 4.6 | 6.2 | 9.2 | -6.2 | 0.6
O=C(NCc1ccco1)c1cc2c(s1)CCCCC2 | 18946* | -51.5 | 2.4 | . | . | 3.0 | 2.1
CC1(C)CC(=O)C2=C(C1)OC(N)=C(C#N)C2c1ccoc1 (stereo not given) | 4286 | -12.6 | 1.0 | 8.3 | -2.5 | -1.5 | -0.6
CC(=O)c1ccc(NC(=O)COC(=O)CCN2C(=O)c3cccc([N+](=O)[O-])c3C2=O)cc1 | 2177 | -24.8 | 4.5 | -10.1 | 6.0 | -5.7 | 2.5
COc1ccc(C2=C(C=O)Cc3ccccc3O2)cc1 | 6177 | -10.9 | 6.9 | 5.6 | 5.0 | 6.4 | 2.0

(more compounds)
mol | Autofluor counter | PrP 5UTR inh | RN4220 kill | Mtb hypoxia rep | Mtb hypoxia rep growth | BJeLR lethal | ugtP null kill
CCOC(=O)CN1C(=O)C(CC)Oc2ccccc21 (stereo not given) | 24132* | -21.9 | 9.7 | 2.6 | 6.4 | -0.5 | -4.8
CCC(=O)Nc1cccc(C2=NN(c3ccccc3)C(c3ccc(OC)cc3)C2)c1 (stereo not given) | 3340 | -11.9 | -4.2 | -7.2 | -6.3 | -2.7 | 1.3
C=CCNc1cnn(-c2ccc(C)cc2)c(=O)c1Cl | 4919 | -94.5 | -1.5 | . | . | -0.1 | 3.9
CCCN(CCO)Cc1ccc(Br)cc1 | 11409 | -17.3 | 1.6 | 14.2 | 12.0 | 0.3 | 5.9
CCOC(=O)N1CCC(N2CCN(S(=O)(=O)c3ccc(OC)cc3)CC2)CC1 | 4323 | -14.6 | 0.4 | 11.4 | -6.3 | 5.0 | 1.6
CC1(C)Cc2c(sc(NC(=O)Nc3ccccc3)c2C(N)=O)CO1 | 3658 | -71.8 | 6.4 | 6.2 | 8.5 | 0.3 | 5.7
COc1ccc(NC(=O)C2=CC(c3ccco3)=NS(=O)(=O)N2C)cc1OC | 5371 | -19.0 | 0.7 | . | . | -10.1 | 0.4
CC(CC(=O)NCc1ccco1)=NNC(=O)COc1ccc(Cl)cc1Cl | . | . | 0.7 | 14.2 | -2.4 | . | 4.7
Cc1ccc(Cl)cc1N1CCN(C(=O)Cc2c(C(=O)O)[nH]c3ccc(Cl)cc23)CC1 | 4774 | -8.0 | 4.1 | 5.5 | -1.9 | 2.3 | 2.8
CCn1c(=S)[nH]c2sc3c(c2c1=O)CCCCC3 | 2404 | 3.3 | 38.5 | 7.7 | 13.3 | -0.2 | 30.8
COC(=O)c1cccc(NC(=O)NC(=O)c2ccc(Cl)cc2)c1 | 4868 | -5.3 | 4.3 | 7.6 | 6.0 | 24.8 | 8.9
O=C(NCCCN1CCCC1=O)Nc1ccc(Br)cc1Cl | 6835 | -34.5 | 1.5 | 5.0 | 4.4 | 3.6 | 8.7
Cc1cccc(C(C)C)c1NC(=O)COC(=O)CCN1C(=O)C2CC=CCC2C1=O (stereo not given) | 5741 | -5.0 | -0.8 | -10.4 | 0.4 | 13.6 | -3.5
COC(=O)c1ccc(C2NCCc3cc(OC)c(OC)cc32)cc1 (stereo not given) | 3479 | -11.8 | 7.5 | 1.1 | -3.0 | 2.9 | 7.7
COc1ccc(/C=C2/SC(=S)N(CCCC(=O)Nc3ccc(O)cc3)C2=O)cc1OC | 4141 | -24.4 | 10.3 | 3.3 | -1.1 | 2.9 | -1.9
COc1ccc(-c2cc(C(=O)N(C)CCc3ccc(OC)c(OC)c3)c3ccccc3n2)cc1 | ? | -5.5 | 4.6 | 5.1 | 12.6 | -4.6 | -3.4
O=S(=O)(c1cccc2nonc12)N1CCCCC1 | ? | -14.7 | . | . | . | -1.8 | .
CCC(CC)C(=O)Nc1cccc(C(=O)Nc2nnc(C)s2)c1 | 3696 | -16.2 | 2.2 | -8.3 | 9.4 | 2.2 | -1.8
COc1ccc(NC(=O)CN(C)C(=O)C2(c3ccccc3)CCCC2)cc1 | 3942 | 13.6 | 4.8 | 12.1 | 5.7 | . | 3.7
C[C@H](CO)N1C[C@H](C)[C@H](CN(C)Cc2ccncc2)Oc2ccc(NC(=O)Nc3ccc(C(F)(F)F)cc3)cc2CC1=O | 2717 | -12.4 | -15.2 | -1.0 | -1.4 | . | -15.4
O=C1C=C2C=CC3CC2(O1)C1CCCCN31 (stereo not given) | . | . | 7.3 | 17.1 | 3.1 | . | 1.3
COc1ccc(NC(=O)c2c(C)cc(=O)oc2C)c(OC)c1 | 2777 | -92.7 | -12.6 | 22.6 | 7.5 | -4.6 | -6.9
CCn1c(SCC(=O)N(C)c2c(N)n(Cc3ccccc3)c(=O)[nH]c2=O)nc2ccccc21 | 4058 | -15.2 | 3.4 | -0.4 | 0.2 | -2.0 | 2.0
O=[N+]([O-])c1cc([N+](=O)[O-])c(Oc2cccc3ccccc23)cc1NN1CCCCC1 | 2818 | 7.1 | 15.5 | 1.2 | -5.6 | . | 8.2
Cc1cc(C)cc(NC(=O)c2oc3ccccc3c2COc2ccccc2)c1 | 1839 | -10.7 | -13.6 | 13.0 | 4.9 | 8.9 | 41.1
O=c1[nH]c(CSc2nc3ccccc3s2)nc2ccccc12 | 4126 | -17.0 | 1.7 | 4.9 | -3.5 | 15.6 | 4.5
O=C(NC1CCCCC1)Oc1cc2oc(=O)sc2cc1Cl | 4394 | -14.4 | 0.2 | 7.5 | 20.6 | -4.7 | 18.0
COCCNC(=O)c1ccc(CN2CCOCC2)cc1 | 2180 | -14.2 | 1.0 | . | . | -5.5 | 11.7
Cc1cc(C)n2nc(C(=O)OCC(=O)N(C)CC(=O)Nc3ccc(F)cc3)nc2n1 | 3913 | -26.8 | 3.9 | 8.2 | 5.8 | . | 1.2
CC1(C)C([N+](=O)[O-])C(c2ccccc2O)NC(c2ccccc2O)C1[N+](=O)[O-] (stereo not given) | 4181 | -3.9 | -2.2 | 11.1 | 4.9 | 6.1 | -8.1

Continuation.
mol | Autofluor counter | PrP 5UTR inh | RN4220 kill | Mtb hypoxia rep | Mtb hypoxia rep growth | BJeLR lethal | ugtP null kill
COc1ccc(CCNC(=O)CSc2nnc(Cc3cccn3C)n2C)cc1OC | 2112 | -72.0 | 1.6 | 3.0 | 12.5 | -5.7 | 8.0
CCc1noc(C)c1C(=O)Nc1nc(-c2ccc(OC)c(OC)c2)cs1 | ? | -12.4 | 9.8 | 15.9 | 6.4 | 14.0 | -6.4
Cc1cc2c(OCC(O)CNCc3ccco3)cccc2[nH]1 (stereo not given) | 3013 | 14.7 | -1.8 | 1.5 | -0.6 | 3.1 | -2.4
COc1ccc(OC)c(S(=O)(=O)N2CCN(c3ccccc3OC)CC2)c1 | 3444 | -13.8 | 3.0 | 0.2 | 8.5 | 5.0 | 0.1
Cc1cc(NC(=O)c2cnn3cccnc23)nn1CC(=O)Nc1cccnc1 | 10470 | -17.1 | 5.2 | 18.1 | 0.3 | -3.3 | -1.0
COc1cc(CO)ccc1Oc1nnnn1-c1ccc(C(N)=O)cc1 | 16480* | -33.5 | 0.3 | 2.7 | 8.6 | -0.8 | -0.9
N#C/C(=C/c1ccc(CNC(=O)C(=O)Nc2cc(Cl)cc(Cl)c2)o1)C(=O)NCc1cccnc1 | 2177 | -7.7 | 10.3 | 4.7 | 0.0 | 4.3 | 21.0
CN=C(C)/C(C(=O)OC)=C(/O)c1ccc(Cl)cc1Cl | 3741 | -41.7 | 2.9 | 0.6 | 0.5 | 0.7 | 1.9

As a short view, three of the compounds above.
mol | Autofluor counter | PrP 5UTR inh | RN4220 kill | Mtb hypoxia rep | Mtb hypoxia rep growth | BJeLR lethal | ugtP null kill
COc1ccc(CCNC(=O)CSc2nnc(Cc3cccn3C)n2C)cc1OC | 2112 | -72.0 | 1.6 | 3.0 | 12.5 | -5.7 | 8.0
CCc1noc(C)c1C(=O)Nc1nc(-c2ccc(OC)c(OC)c2)cs1 | ? | -12.4 | 9.8 | 15.9 | 6.4 | 14.0 | -6.4
Cc1cc2c(OCC(O)CNCc3ccco3)cccc2[nH]1 (stereo not given) | 3013 | 14.7 | -1.8 | 1.5 | -0.6 | 3.1 | -2.4
